High-throughput results (PubChem BioAssay)
Sa RN4220 lethal = kills Staphylococcus aureus RN4220 | S. aureus RN4220 growth, OD600, 16 h | inhibition, % (test concentration not listed) | 330,000 compounds, 0.33% hits | AID 1259311;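 active means z-score of -3 or lower and OD600 up to 0.18 on both plates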;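 further: plate controls were untreated cells for no effect and reference antibiotic for full effect; stock transfer was 100 nL into about 80 µL; one replicate is shown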
Mtb hypoxia rep = reduces hypoxia-regulated biosensor signal in M. tuberculosis; M. tuberculosis hypoxia-regulated fluorescent reporter, fluorescence; AID 1159583; fluorescence inhibition, % (concentration not given with the values); 300,000 compounds, 0.1% hits;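 active means 35 to 45% if threefold the growth effect, above 45% if 1.5-fold the growth effect; inactive means the rest, general growth blockers included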;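 further: wells of about 50 µL received 100 nL stock; 0% = vehicle wells and 100% = reference inhibitor wells; whole bacteria with a GFP reporter of the hypoxia response; strong numbers were not always called active; many hits fall short of the cut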
PrP UTR inh = suppresses PrP 5' UTR mRNA reporter expression; cell-based PrP 5' UTR mRNA reporter, plate reader; inhibition, % (no concentration beside the values); 340,000 compounds, 0.35% hits;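 active means every replicate at 50% or more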;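 further: 0 = median of the neutral control wells; tested in H4 reporter cells; numbers are from one replicate; inactives centre near -14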
Bead autofluor = compound fluorescence in toxin protease inhibitor counterscreen; compound autofluorescence counterscreen, microsphere flow cytometry; hits give high values; fluorescence intensity (concentration not given with the values); 360,000 compounds, 3.1% hits; AID 624483;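 active means at least 3 SD above the mean of all compounds, about 16000 in these data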;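 further: 100 nL of 1 mM stock went into each well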
BJeLR lethal = BJeLR cell viability loss | inhibition, % (test concentration not listed) | 300,000 compounds, 0.17% hits | BJeLR (HRASV12) viability, CellTiter-Glo ATP luminescence, 48 h; reference of the scale not given here | AID 1554;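 active means replicate mean above 50%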;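 further: 50 nL library stock added to about 25 µL; numbers are from one replicate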
Sa ugtP lethal = compounds lethal to S. aureus RN4220 ugtP deletion mutant. OD600 growth, 16 h; some inactives read as strong as hits. growth inhibition, % (test concentration not listed). 330,000 compounds, 0.54% hits. AID 1259309;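 active means z-score under -3 and OD600 up to 0.15 on both plates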;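 further: plate controls were untreated wells for no effect and antibiotic for full effect; wells of about 80 µL received 100 nL stock; the first replicate is given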
Mtb hypoxia rep growth = recorded beside Mtb hypoxia rep, whose call it bears; growth inhibition, %; measured here: M. tuberculosis growth (absorbance);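 0% = vehicle and 100% = reference antibiotic; read after six days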
An asterisk follows results filed as active; · = not tested or not shown. Compounds as they come. About 4% of those tested had a hit in this group.

SMILES	Sa RN4220 lethal	Mtb hypoxia rep	Mtb hypoxia rep growth	PrP UTR inh	Bead autofluor	BJeLR lethal	Sa ugtP lethal
NC(=O)CC(NC(=O)OCc1ccccc1)C(=O)O (stereo unspecified)	-0.3	·	·	-9	2900	7	-10
CC=CC=CC(=O)Nc1cccc(C2=NOC3(C2)CC(C(N)=O)N(C(=O)c2ccccc2C(=O)c2ccccc2)C3)c1 (stereo unspecified)	3.0	-1	9	·	·	·	-9
Cc1ccc(/C=C2\C(=O)NC(=O)N(CC3CCCO3)C2=O)s1 (stereo unspecified)	2.1	-3	-10	-9	·	-5	10
O=C(C[n+]1ccccc1)NN=Cc1ccccc1F	7.7	11	4	·	·	·	-3
Cc1cc(C)cc(-n2nnnc2SCC(=O)Nc2cccc(NC(=O)c3ccco3)c2)c1	-1.3	·	·	-1	4145	-6	2
COc1cc(/C=N/NC(=S)Nc2cccc(C(=O)O)c2)ccc1O	·	·	·	51	2677	6	·
CSC1=N/C(=C\C=C\c2cccs2)C(=O)S1	1.7	3	9	-17	3578	-9	7
COc1cccc(NC(=O)COC(=O)c2c(-c3ccccc3)noc2C)c1	1.9	8	2	·	9189	4	-1
O=C(CSc1nc(Nc2ccccc2)nc(N2CCOCC2)n1)Nc1ccc([N+](=O)[O-])cc1	-4.2	2	6	·	8369	5	-41
O=C(COC(=O)c1cc[n+]([O-])cc1)Nc1c(Cl)cccc1C(F)(F)F	2.4	-1	-6	-17	5217	-7	-2
O=C(O)CN1C(=O)Nc2ccc(Br)cc2C1c1ccccc1 (stereo unspecified)	-7.4	16	10	-9	3302	-3	5
CC(/C=N/NC(=O)CSc1ccccn1)=C\c1ccc(C(C)C)cc1	·	·	·	-116	2663	1	·
Cc1ccc(OCC(=O)NNC(=O)C2CSC3(C)CCC(=O)N23)cc1C (stereo unspecified)	2.1	5	7	-30	5184	·	8
CN(C)/C=C1\C(=O)N(c2ccc(Cl)cc2)CS1(=O)=O	3.3	11	0	-25	23839*	-6	-3
COc1c(C)cc(C(=O)C2CCCN(C(=O)c3ccc4cc[nH]c4c3)C2)cc1C (stereo unspecified)	22	-10	3	-29	4414	-2	15
COc1cccc(C(=O)OCC(=O)N2CCc3ccccc3C2)c1	1.5	1	2	-4	4486	·	-5
COc1cc(C)c(NC(=O)C2CCN(S(=O)(=O)c3cccs3)CC2)cc1OC	1.2	-2	1	8	2914	·	-2
O=c1c2cc(Br)ccc2nc(-c2ccccc2)n1O	·	·	·	-14	3660	-2	·
Cc1cc(C)c(S(C)(=O)=O)c(Oc2ccccc2C)n1	3.2	·	·	-8	4951	3	4
CCNC(=S)N1CCN(S(=O)(=O)c2ccc(C)c(C)c2)CC1	8.7	11	6	-30	4314	10	-2

Given with values under each structure: 6 of the compounds above
Sequence of screens – Sa RN4220 lethal, Mtb hypoxia rep, Mtb hypoxia rep growth, PrP UTR inh, Bead autofluor, BJeLR lethal, Sa ugtP lethal
- COc1cccc(NC(=O)COC(=O)c2c(-c3ccccc3)noc2C)c1
→ 1.9, 8, 2, ·, 9189, 4, -1
- O=C(C[n+]1ccccc1)NN=Cc1ccccc1F
→ 7.7, 11, 4, ·, ·, ·, -3
- Cc1cc(C)c(S(C)(=O)=O)c(Oc2ccccc2C)n1
→ 3.2, ·, ·, -8, 4951, 3, 4
- Cc1ccc(OCC(=O)NNC(=O)C2CSC3(C)CCC(=O)N23)cc1C (stereo unspecified)
→ 2.1, 5, 7, -30, 5184, ·, 8
- O=C(CSc1nc(Nc2ccccc2)nc(N2CCOCC2)n1)Nc1ccc([N+](=O)[O-])cc1
→ -4.2, 2, 6, ·, 8369, 5, -41
- O=C(O)CN1C(=O)Nc2ccc(Br)cc2C1c1ccccc1 (stereo unspecified)
→ -7.4, 16, 10, -9, 3302, -3, 5

(more compounds)
SMILES	Sa RN4220 lethal	Mtb hypoxia rep	Mtb hypoxia rep growth	PrP UTR inh	Bead autofluor	BJeLR lethal	Sa ugtP lethal
Cc1ccc(-n2ncc(C#N)c2/N=C/N2CCOCC2)cc1	·	·	·	-8	4726	-4	·
Cc1ccc(C(=O)CCC(=O)Nc2ncccc2C)cc1	-2.2	8	1	-29	3152	·	-8
CCCNc1ncccc1C(N)=O	-1.8	·	·	-6	4679	-2	2
CCOC(=O)c1ccc(CNC(=O)c2cc(COc3ccccc3SC)on2)o1	-5.6	1	-1	-95	5822	9	-6
CC(C)CCSc1cc(NCCO)c([N+](=O)[O-])c2nonc12	11	-6	2	-4	4294	8	5
CC(=O)/C(=C/c1ccc(N(C)C)cc1)C(=O)c1ccccc1	7.5	·	·	-9	2194	-13	7
O=C(COc1ccccc1Br)c1ccc(O)cc1O	-3.8	-12	0	-22	8675	-1	-12
Cc1ccc([N+](=O)[O-])cc1NC(=O)c1ccoc1C	6.7	4	5	-7	1946	-13	0
CC1(C)CC(=O)C(C=NCC2CCCO2)=C(O)C1 (stereo unspecified)	5.4	6	7	-32	25274*	·	-4
CC(C)(Oc1ccc(Cl)cc1)C(=O)Nc1ccc2oc(=O)ccc2c1	-1.2	1	11	-9	4325	2	7
O=C(Nc1ccccc1)Nc1cc(Cl)cc(Cl)c1	·	·	·	-28	3131	-4	·
C=CCN1CC(C(=O)N2CCC(Cc3ccc(Cl)cc3)(C(=O)OCC)CC2)CC1=O (stereo unspecified)	7.0	-3	5	1	4624	-5	-5
O=C(Cn1c(=O)n(CCc2c[nH]c3ccccc23)c(=O)c2cccnc21)Nc1ccccc1F	1.8	6	3	5	5630	2	19
COCc1cc(C)nc(SCC(=O)NCc2ccco2)c1C#N	-2.6	-10	12	-15	10635	7	-8
COc1ccccc1C(=O)NC(C)C(c1cccs1)N1CCOCC1 (stereo unspecified)	4.6	10	1	-1	5285	-3	1
O=C(CSc1ncn[nH]1)Nc1nc(-c2cccc([N+](=O)[O-])c2)cs1	3.6	18	-6	-23	4173	9	-11
Cc1nnc(SCc2ccccc2)n(N)c1=O	5.9	-3	0	-10	10046	2	10
CCOc1ccccc1NC(=O)C1CCN(C(=O)Cc2ccccc2)CC1	-0.6	-7	4	-31	3857	12	0
COc1cc(NC(=O)CSc2nc3ccccc3cc2C)c(C(=O)O)cc1OC	-2.9	-15	9	-15	2213	-9	-5
CCN(CC)C(=O)CSc1nc2c(sc(=S)n2-c2ccccc2)c(=O)n1-c1ccc(OC)cc1OC	-0.2	2	2	-22	3442	-8	-1
C=C1CC2C=C(NC(C)=O)CC(C1)C2 (stereo unspecified)	2.4	-5	1	-10	22238*	-5	-1
CC12CCC(C(=O)N(Cc3ccccc3)Cc3ccccc3)(OC1=O)C2(C)C (stereo unspecified)	7.4	·	·	1	3656	8	4
O=C(O)c1ccccc1C(=O)NCc1ccc(F)cc1	4.8	15	14	-14	15310	2	19
C=CCc1cccc2cc(C(=O)NC3CCCC3)c(=O)oc12	12	7	12	-26	2229	-4	-12
CC1CC(O)C(C)CN1 (stereo unspecified)	3.7	-4	-3	-22	5595	-5	2
CCOC(=O)NC(=O)c1cn(Nc2ccccc2)c(=O)[nH]c1=O	2.7	-8	-7	6	5931	-6	4
Cc1c(C(=O)NCc2ccco2)cccc1[N+](=O)[O-]	1.3	13	9	3	1874	3	8
Cc1cccc(CN2CCN(c3nc4nonc4nc3NC3CC3)CC2=O)c1	1.4	10	-7	-12	2074	-5	-3
CCOC(=O)Nc1cccc(Cl)c1C	7.1	13	15	-17	4245	-2	-5
CCn1c(SCC(=O)Nc2cc(OC)ccc2OC)nnc1C1CCCCC1	-1.8	3	3	-32	7698	2	-4
CC(=O)N1CCOc2ccc(S(=O)(=O)N3CCC(C(=O)Nc4cc(C)ccc4C)CC3)cc21	0.0	5	2	-6	6103	2	8
Cc1ccc(CNC(=O)C2CCN(S(=O)(=O)c3cccs3)CC2)cc1	3.9	6	-3	5	4579	-6	2
COc1cc(C=NNC(=O)Nc2ccccc2)ccc1OC(C)=O	3.2	4	1	·	·	·	3
COCC(=O)N(C)C1(c2nnnn2CCOC(=O)Nc2ccc(Cl)cc2)CCCC1	2.5	2	-1	-5	10476	1	-5
COc1cc(OC)cc(-c2nnc(NC(=O)Cc3ccc(F)cc3)o2)c1	2.8	6	4	-9	6555	-7	2
COc1ccc(C2(CNC(=O)c3ccc(OC)c([N+](=O)[O-])c3)CCOCC2)cc1OC	-5.1	6	8	-15	21598*	-11	4
Cc1nn(-c2ccccc2)c(Cl)c1/C=N/NC(=O)c1ccnn1C	·	·	·	-74	4815	-9	·
COc1ccc(CNC(=O)CN(C2CCCCC2)S(C)(=O)=O)cc1	1.8	9	1	-1	2330	0	3
Cc1ccc(N2C(=O)c3ccccc3C2Nc2ccccc2)nc1 (stereo unspecified)	-11	11	18	-21	6241	-7	-6
O=C(O)CCCC(=O)Nc1ccccc1Br	5.1	·	·	-12	3641	13	2
Cc1cccc(-n2c(CCc3ccccc3)nnc2SCC(=O)c2ccccc2)c1	4.0	6	-4	-12	2460	-3	-3
CCOc1cc(NC(=O)C2CCCO2)c(OCC)cc1NC(=O)C1CC1 (stereo unspecified)	-1.7	-11	4	-3	8926	·	-4
O=C(COc1cccc(F)c1)Nc1nc(-c2cccnc2)cs1	-3.4	4	-6	2	2935	·	-6
Cc1ccc(NC(=O)C2CC(=O)N(C(C)c3ccccc3)C2)cc1 (stereo unspecified)	0.5	7	-4	-6	2773	·	-3
O=C(CNC(=O)c1cccc(F)c1)NN=Cc1ccc(O)c([N+](=O)[O-])c1	4.1	·	·	·	·	·	2
CCN(CC)c1ccc(C=Nc2cc(C)cc(C)c2)c(O)c1	2.6	14	3	-29	3216	3	0
Cc1ccc(S(=O)(=O)Nc2ccc(C(OC(=O)c3ccccc3[N+](=O)[O-])(C(F)(F)F)C(F)(F)F)cc2)cc1	7.4	5	6	-5	7378	9	-1
c1ccc2c(Nc3nc(N4CCOCC4)c4ccccc4n3)cccc2c1	0.3	-10	-9	-38	2241	2	-12
CC(=O)c1cccc(NS(=O)(=O)c2cc(-c3cnc(C4CC4)o3)ccc2C)c1	-0.8	2	2	-14	·	10	-2
COc1ccc(CNC(=O)COC(=O)C2CC2C)cc1OC (stereo unspecified)	4.2	-7	-10	14	5248	4	4
Further structures
SMILES	Sa RN4220 lethal	Mtb hypoxia rep	Mtb hypoxia rep growth	PrP UTR inh	Bead autofluor	BJeLR lethal	Sa ugtP lethal
COc1cc2c(cc1OC)C(c1ccccc1)N(C(=O)c1cccc(S(C)(=O)=O)c1)CC2 (stereo unspecified)	-5.6	-6	2	-123	3527	18	1
O=C(Cc1ccccc1)NN=Cc1cccnc1	1.9	12	8	·	·	·	3
CC1CC(C)CN(c2nc3c(c(=O)n(C)c(=O)n3C)n2CCSc2ncccn2)C1 (stereo unspecified)	-1.0	1	10	-5	5808	7	-7
O=C(Nc1nnc(SCC(=O)N2CCOCC2)s1)C1CC(=O)N(c2ccccc2)C1 (stereo unspecified)	1.5	-11	-10	-11	2893	-10	-2
O=C(/C=C/Nc1ccccc1)c1ccccc1	-5.0	-3	8	-27	3120	-3	-14
CCCN(CCC)CCNC(=O)C(NS(=O)(=O)c1ccc2c(c1)CCC(=O)N2)c1ccccc1 (stereo unspecified)	0.5	12	11	-2	23934*	-9	1
N#Cc1nc(Cc2ccccc2)oc1NCCN1CCOCC1	2.7	7	4	-28	10436	-7	0
CCOC(=O)Nc1sc2c(c1C(=O)OCC)CCC2	-1.0	5	5	-23	9758	-4	61
Cc1ccc(C)c(NC(=O)CCN2CC(C)CC(C)C2)c1 (stereo unspecified)	2.9	1	0	-22	3631	-10	6
O=C(CSc1nnc(-c2ccc(F)cc2)o1)c1ccc2c(c1)OCCO2	4.9	11	3	0	7482	3	-11
CCc1ccccc1NC(=O)CC(O)(C(=O)OC)C(F)(F)F (stereo unspecified)	2.7	11	-2	-18	12941	0	3
CC(CC(O)c1ccc2ccccc2n1)=NO (stereo unspecified)	4.3	2	10	·	·	·	4
O=C1C2C(c3cccc(C=Cc4ccccc4)c3)CC=CC2C(c2ccc(C(F)(F)F)cc2)N1Cc1ccccc1 (stereo unspecified)	17	8	9	·	·	·	-6
COc1ccccc1-c1c(C)nn2c(N3CCN(Cc4ccccc4)CC3)cc(C)nc12	0.8	-3	14	-4	4591	1	14
COc1ccc(C(=O)Nc2c(C(C)(C)C)nn(C)c2C(C)(C)C)cc1	0.9	-1	-1	-20	·	-8	5
O=C(Nc1ccc(N2CCOCC2)cc1)c1cc2c(s1)CCCC2	1.3	5	3	-35	3240	1	-5
COc1ccccc1NS(=O)(=O)c1cccc(C(=O)N/N=C/c2ccc(NC(C)=O)cc2)c1	·	·	·	-27	4777	3	·
CCOC(=O)c1ccc(NC(=O)CSc2nnc(Cn3c(=O)sc4ccccc43)n2C)cc1	-0.4	·	·	-31	5680	9	9
